Screening results: PubChem BioAssay, several laboratories
RecA splice inh: inhibitors of M. tuberculosis RecA intein splicing. cell-free RecA intein splicing, fluorescence. inhibition, %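 (about 9 µM by stock and volumes)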. actives 0.75% (n = 290,000); in the data active = inhibition above about 30%; inconclusive = no clear call, values can overlap the other calls;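 also: 0% = vehicle wells and 100% = reference inhibitor control wells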
Target sequence (P9WHJ3 whole entry, looked up, canonical isoform): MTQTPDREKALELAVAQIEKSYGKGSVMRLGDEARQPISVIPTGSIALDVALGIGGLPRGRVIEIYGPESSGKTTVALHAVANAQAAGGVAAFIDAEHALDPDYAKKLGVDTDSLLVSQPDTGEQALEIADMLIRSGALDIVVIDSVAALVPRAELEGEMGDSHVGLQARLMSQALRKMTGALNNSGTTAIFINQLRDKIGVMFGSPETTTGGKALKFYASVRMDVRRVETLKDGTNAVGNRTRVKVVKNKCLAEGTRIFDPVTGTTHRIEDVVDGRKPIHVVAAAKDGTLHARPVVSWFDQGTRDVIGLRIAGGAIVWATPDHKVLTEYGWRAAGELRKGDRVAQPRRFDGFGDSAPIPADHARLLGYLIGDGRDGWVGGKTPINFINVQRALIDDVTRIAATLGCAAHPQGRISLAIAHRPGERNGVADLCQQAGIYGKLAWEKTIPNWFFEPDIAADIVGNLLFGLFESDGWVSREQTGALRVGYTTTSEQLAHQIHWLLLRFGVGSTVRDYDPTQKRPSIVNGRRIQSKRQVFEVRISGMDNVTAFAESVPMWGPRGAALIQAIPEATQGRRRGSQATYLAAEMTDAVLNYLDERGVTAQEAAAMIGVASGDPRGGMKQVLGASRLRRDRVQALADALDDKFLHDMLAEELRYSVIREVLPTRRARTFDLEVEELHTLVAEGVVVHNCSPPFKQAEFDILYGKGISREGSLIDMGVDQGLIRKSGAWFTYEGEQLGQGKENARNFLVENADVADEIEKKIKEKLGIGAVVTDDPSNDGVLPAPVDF
Arbovirus anti: antivirals against arbovirus infection; arbovirus infection cell-based antiviral screen; inhibition, % at 10 µM; actives 0.37% (n = 200,000);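 active = inhibition from about 30%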;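 also: bluetongue infection of BSR cells; cell survival read as ATP light after 72 h; 0% = infected wells without compound and 100% = uninfected wells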
Mtb betalactam: beta-lactam sensitization of Mtb H37Rv. M. tuberculosis H37Rv growth with meropenem, percent inhibition; hits of this screen are not shown here. AID 434955. inhibition, % at 25 µM. actives 0.27% (n = 330,000);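 active = about 74% or more and at least 40 points above the plate without the antibiotic, then above 30% in a dose series; inconclusive = first-round hits that could not be retested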;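 also: growth measured after seven days incubation then overnight dye step; 0% = bacteria only wells and 100% = bacteria with antibiotic; twin plates without the antibiotic show which effects depend on it; some results filed as inactive read as strong as hits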
Mtb H37Rv: M. tuberculosis H37Rv growth inhibitors, H37Rv strain (AID 1626) | one-dose inhibition, % at 10 µM; IC50 in µM for titrated hits | actives 0.95% (n = 220,000) | M. tuberculosis H37Rv growth inhibition; higher % means a stronger effect;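 active = confirmed in a dose series; inconclusive = inhibition above 80% but not taken into the dose series; inactive = below 80% or under 30% at every dose of the series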;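 also: bacteria incubated seven days before Alamar blue readout; 0% = bacteria only wells and 100% = bacteria with antibiotic wells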
YopH PTP inh: inhibitors of Yersinia enterocolitica YopH tyrosine phosphatase. inhibition, %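 (about 10 µM by stock and volumes)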. actives 0.16% (n = 140,000). fluorescence Ex485/Em525. AID 898;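 active = inhibition of 50% or more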;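 also: controls were vehicle for no effect and minimum signal wells for full effect; inactives centre near -20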
Arbovirus anti repeat: further read-out of Arbovirus anti, marked with its call; inhibition, %; measured here: 10K subset replicate screen; many hits read low in the repeat;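 first of two repeat runs on a subset; 0% = infected and 100% = uninfected wells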
Active calls of the source: *; ? = inconclusive; . = not tested or not shown.

SMILES	RecA splice inh	Arbovirus anti	Mtb betalactam	Mtb H37Rv	YopH PTP inh	others
O=C(C1CCCCC1)N1CCC(c2nc3ccccc3[nH]2)CC1	0.3	11	-5	1%	-47
COc1ccc(-c2cnc(OC(C)(C)C)nc2OC(C)(C)C)cc1OC	1.4	-6	-10	-6%	0
CC(C)c1ccc(NS(=O)(=O)c2cn(C)c(=O)n(C)c2=O)cc1	-3.0	-2	5	6%	-48
O=C(CCc1ccccn1)N1CCCC(Nc2ccc(F)cc2)C1 (centres undefined)	0.6	.	1	.	.
O=C(Nc1cccc(S(=O)(=O)N2CCOCC2)c1)c1cnccn1	-2.5	5	-3	3%	.
C=CCn1cccc(C(=O)Nc2ccc(F)cc2)c1=O	0.4	.	5	.	.
O=C(NCCO)C(F)(F)C(F)(F)C(F)(F)OC(F)(C(=O)NCCO)C(F)(F)F (centres undefined)	2.2	18	-4	-5%	-6
Fc1ccccc1Cc1noc(CN(Cc2ccccn2)CC2CCCO2)n1 (centres undefined)	-0.6	2	-3	-3%	.
C[n+]1c(/C=C/c2ccc(O)cc2)ccc2ccccc21	-1.1	.	-4	.	.
CCCC(=O)Nc1cc(=O)n(C)c(=O)n1C	1.5	4	-2	1%	-33	Arbovirus anti repeat=0
O=C1C=CC(=O)N1c1ccc(Sc2ccc([N+](=O)[O-])cc2)cc1	5.3	.	-5	-18%	.
Cc1nn(C)cc1CNC(=O)C1C2CCC(O2)C1C(=O)O (centres undefined)	0.5	4	-7	5%	-22
O=C(NCc1ccccc1)N1CCn2c(nc3ccccc32)C1	-0.2	4	-8	3%	1
COc1cc(OC)c(NC(=O)CCNS(=O)(=O)c2ccc3c(c2)CC(C)N3C(C)=O)cc1Cl (centres undefined)	0.5	.	4	.	.
Cc1cc(/C=C(\C#N)C(=O)NC2CC2)c(C)[nH]1	3.1	-4	-6	-6%	-23
COc1cccc(N=c2oc3ccccc3cc2-c2nc3ccccc3[nH]2)c1	-1.8	-5	21	4%	-19
COc1cc(C2CC(=O)c3cnc(NC(C)=O)nc3C2)cc(OC)c1OC (centres undefined)	-1.0	1	-1	1%	-28
C/C(=N\OCC(=O)OCC(=O)NC(=O)c1ccc(OC(F)F)cc1)c1ccc2c(c1)OCO2	-1.5	.	-4	.	.
CC(OC(=O)c1ccc2c(=O)n3c(nc2c1)CCC3)C(=O)NC1CCCCC1C (centres undefined)	-3.7	.	-6	.	.
C=CCc1cc(/C=C2/NC(=O)N(CC)C2=O)cc(OCC)c1OCc1ccc(C(=O)O)cc1	1.0	18	4	1%	-15
Cc1ccc(NCN2C(=O)C(=O)c3ccccc32)nc1	-1.3	-11	2	1%	-30
COc1ccc(-c2nnn(CC(=O)N3CCN(c4ccccc4OC)CC3)n2)cc1OC	1.1	-5	1	10%	.
CCOc1ccc(CCNC(=O)COC(=O)c2cccc(N(C)C)c2)cc1OCC	-1.6	.	-15	.	.
COc1cc(C(=O)Nc2sc(C)c(C)c2C(=O)O)cc(OC)c1OC	-1.0	44*	-8	1%	.
CN(C)/C=N/c1sc2c(c1C#N)CCC2	7.1	-7	5	2%	-46
Oc1ccccc1C=NCC(O)c1ccccc1 (centres undefined)	1.3	-2	-2	-2%	-42
CCOc1ccc(C(=O)Nc2ccc(S(=O)(=O)N3CCOCC3)cc2)cc1OCC	1.5	-1	-11	2%	-20
CCCCN(CC)CCNC(=O)c1cc2c(=O)n(C)c3ccccc3c2s1	-0.8	.	-4	.	.
COc1ccc(/C=C2\Oc3cc(OCC(N)=O)ccc3C2=O)cc1OC	-5.7	.	-6	.	.
Cc1ccc(S(=O)(=O)Oc2ccc(/C=N/NC(=O)c3c(Cl)cnn3C)cc2)cc1	0.5	-3	5	1%	18
CCOC(=O)C1CCN(C(=O)CCCn2c(=O)c3cccn3c3cccnc32)CC1	-1.1	.	5	.	.
O=C(CCCCCN1C(=O)[C@@H]2Cc3ccccc3CN2C1=O)N[C@@H](Cc1ccc(O)cc1)C(=O)O	-0.7	.	-10	.	.
N/C(=N\OC(=O)CCc1ccccc1)c1cccc(Br)c1	0.2	-4	94	?	-11
COc1ccc(NC(=O)CN(C)C(=O)CN2C(=O)NC3(CCCC3)C2=O)cc1	-0.8	.	2	.	.
O=C(NNc1ccc(Cl)cc1)c1sccc1Cl	.	.	95	63%	.
O=c1c2c(n3nnnc3n1Cc1ccccc1)-c1ccccc1CC21CCCC1	5.7	-7	4	-10%	-40
CC(C)C[C@@H]1NC(=O)N(CCCn2ccnc2)C1=O	0.0	.	-2	.	.
CCN1c2nc3ccccn3c(=O)c2CC2(C(=O)N(C)C(=O)N(C)C2=O)C1C (centres undefined)	-1.4	-3	-27	-2%	-18
CNc1ccc(/C=C(\C#N)C(=O)Nc2ccccn2)cc1[N+](=O)[O-]	-0.8	.	3	.	.
COc1cc([C@H]2[C@@H]3CCCC[C@]3(O)CCN2Cc2ccccc2F)ccc1O	2.9	10	-5	0%	-44

Of the compounds above, these contain a cyano group.
SMILES	RecA splice inh	Arbovirus anti	Mtb betalactam	Mtb H37Rv	YopH PTP inh	others
Cc1cc(/C=C(\C#N)C(=O)NC2CC2)c(C)[nH]1	3.1	-4	-6	-6%	-23
CN(C)/C=N/c1sc2c(c1C#N)CCC2	7.1	-7	5	2%	-46
CNc1ccc(/C=C(\C#N)C(=O)Nc2ccccn2)cc1[N+](=O)[O-]	-0.8	.	3	.	.

A draw from above in order of formula weight, ascending.
SMILES	RecA splice inh	Arbovirus anti	Mtb betalactam	Mtb H37Rv	YopH PTP inh	others
Oc1ccccc1C=NCC(O)c1ccccc1 (centres undefined)	1.3	-2	-2	-2%	-42
COc1cc([C@H]2[C@@H]3CCCC[C@]3(O)CCN2Cc2ccccc2F)ccc1O	2.9	10	-5	0%	-44
CCOc1ccc(C(=O)Nc2ccc(S(=O)(=O)N3CCOCC3)cc2)cc1OCC	1.5	-1	-11	2%	-20

The main list resumes, repeating the five entries before the break.
SMILES	RecA splice inh	Arbovirus anti	Mtb betalactam	Mtb H37Rv	YopH PTP inh	others
O=c1c2c(n3nnnc3n1Cc1ccccc1)-c1ccccc1CC21CCCC1	5.7	-7	4	-10%	-40
CC(C)C[C@@H]1NC(=O)N(CCCn2ccnc2)C1=O	0.0	.	-2	.	.
CCN1c2nc3ccccn3c(=O)c2CC2(C(=O)N(C)C(=O)N(C)C2=O)C1C (centres undefined)	-1.4	-3	-27	-2%	-18
CNc1ccc(/C=C(\C#N)C(=O)Nc2ccccn2)cc1[N+](=O)[O-]	-0.8	.	3	.	.
COc1cc([C@H]2[C@@H]3CCCC[C@]3(O)CCN2Cc2ccccc2F)ccc1O	2.9	10	-5	0%	-44
COC(=O)[C@H](CC(C)C)NS(=O)(=O)c1ccccc1	1.8	.	1	.	.
CCCOc1ncnc2c1[nH]c1ccccc12	-3.1	9	0	.	-25
O=C1NC(c2ccccc2)=C(c2ccccc2)C1=O	.	-1	-5	3%	-28
CN(C)Cc1c(O)ccc2occ(C(=O)c3ccccc3)c12	3.1	10	1	-8%	-1
CCn1c(=O)c2c(nc3n2CCS3)n(C)c1=O	-0.7	-2	-1	0%	-31
Cc1ccc(NC(=O)O/N=C/c2ccc(Br)cc2)cc1	-1.2	.	1	.	.
COc1ccc(N2CCN(C(=O)CCCSc3nc4ccccc4[nH]3)CC2)cc1	-1.5	15	6	4%	-21
CC(C)(C)C(=O)Nc1nc2c(s1)COc1ccccc1-2	7.0	4	1	10%	-41

Some of the compounds tested; rates above refer to the full screens.
